# Compound activity from PubChem BioAssay.
# Rce1 inh: yeast Ras-converting enzyme inhibition. Q03530. yeast membranes, quenched prenylated peptide cleavage fluorescence. calls only. actives 0.27% (n = 290,000). AID 2563;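 active = fall in fluorescence gain of 50% or more versus controls, with final raw signal at or below 3038400; inconclusive = same 50% fall but final raw signal above 3038400; inactive = fall in fluorescence gain under 50%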;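 also: plate controls were neutral control wells for no effect and wells lacking membranes for full effect; tested at 10 µM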
# Target sequence (Q03530 whole entry, looked up): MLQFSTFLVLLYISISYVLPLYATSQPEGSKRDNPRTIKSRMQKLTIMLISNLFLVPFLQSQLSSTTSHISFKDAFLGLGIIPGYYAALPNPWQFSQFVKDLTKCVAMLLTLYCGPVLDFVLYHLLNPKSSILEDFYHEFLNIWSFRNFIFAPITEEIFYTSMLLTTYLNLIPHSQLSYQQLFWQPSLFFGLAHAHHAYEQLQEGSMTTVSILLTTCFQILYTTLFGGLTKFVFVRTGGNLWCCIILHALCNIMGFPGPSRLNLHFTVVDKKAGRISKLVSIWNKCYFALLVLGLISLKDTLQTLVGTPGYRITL
# CSC inhib: blocks cancer stem cells; cancer stem cell-like cells viability, luminescence; inhibition, % at 7.5 µM; actives 1.1% (n = 300,000); AID 2717;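 active = mean at 75% or more and at least half the replicates too; inconclusive = mean and replicates disagree; tested in HMLE shEcad cells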;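 also: 0% = median of negative and 100% = median of positive control wells; the first replicate is given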
# eIF4H FP inh: inhibitors of RNA binding by human eIF4H. actives 0.94% (n = 290,000). inhibition, % at 35 µM. Q15056. eIF4H fluorescence polarization binding assay;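 active = 50% or more with normal probe brightness, or confirmed in later tests; inconclusive = above 50% with abnormal brightness, or retests that disagree; inactive = below 50% or failed in later tests; about a fifth of its hits are not listed in these tables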;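 also: calls also rest on retests at 20 µM and on dose response follow-up; 0% = protein and probe with vehicle and 100% = probe without protein; strong numbers were not always called active; many hits fall short of the cut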
# PABP polyA inh: blocks human PABP binding to poly(A) RNA; AID 2014; P11940; inhibition, % at 35 µM; fluorescence polarization; actives 1% (n = 290,000);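 active = 50% or more with normal probe brightness, or confirmed in later tests; inconclusive = above 50% with abnormal brightness, or retests that disagree; inactive = below 50% or failed in later tests; about a fifth of its hits are not listed in these tables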;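 also: calls also rest on retests at 20 µM and on dose response follow-up; controls were probe without protein and protein plus probe with vehicle; some compounds called inactive have numbers as strong as hits; many hits fall short of the cut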
# UUG fidelity: alters start codon recognition fidelity in yeast; activity score, % at 18.7 µM; actives 0.13% (n = 350,000); AID 602363; S. cerevisiae UUG-firefly luciferase reporter, luminescence/redox ratio;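 active = replicate mean at a twofold rise or more, about +100% in these data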;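 also: firefly luciferase made from a UUG start codon reports start codon fidelity; reporter light over untreated wells divided by growth signal over untreated wells; some hits fall short of that in this replicate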
# Env fusion inh: HIV envelope-mediated fusion inhibition; HeLa-JRFL Env/CEM21 cell fusion, luciferase; inhibition, % at 12.3 µM; actives 1.1% (n = 360,000);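 active = mean replicate inhibition score of at least 50 and every replicate individually at or above 50; inconclusive = only one of the two criteria met; inactive = mean below 50 and not all replicates reaching 50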;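 also: 0% = plate neutral controls and 100% = maraviroc near 300 nM; one replicate is shown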
# MT1-MMP act inh: blocks activation of human MT1-MMP; P50281; HT1080 RFP-PRO-GFP cells, GFP/RFP ratio fluorescence, overnight; percent of plate control window, DMSO zero; GFP/RFP ratio change, % at 20 µM; actives 0.061% (n = 360,000);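 active = GFP/RFP ratio change of at least 30% with cell ATP level not reduced by more than half and red fluorescence within 50% of control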; also: strong numbers were not always called active
#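 Test system: HT1080 cells expressing an RFP-PRO-GFP fluorescent reporter construct / Compound dosing: single-point 20 µM compound, 1% DMSO / Schedule: cells overnight before dosing, compound overnight, 37 °C, 5% CO2 / Evaluation: GFP/RFP fluorescence ratio / Control set: DMSO and RFP-L50D-GFP cell wells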
# MT1-MMP act inh RFP: recorded beside MT1-MMP act inh, whose call it bears; RFP signal change, %; measured here: RFP expression control read;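 0 = vehicle wells; hits needed this value within 50% of zero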
# An asterisk follows results filed as active; i = inactive; ? = inconclusive; . = not tested or not shown; + = active, no number; & = joins results of further samples.
SMILES	Env fusion inh	MT1-MMP act inh	UUG fidelity	PABP polyA inh	eIF4H FP inh	MT1-MMP act inh RFP	Rce1 inh	CSC inhib
COc1ccccc1C1CC(=O)Oc2cc(OC)c(OC)c(OC)c21 (stereo not given)	-4	4	-6	.	.	7	.	.
CCOC(=O)c1c(C)oc2cc(Br)c(OC(C)C(=O)OCC)cc12 (stereo not given)	49	-4	-9	-4	-4	-3	i	.
Cn1c(SCC(=O)N2CCN(c3cccc(Cl)c3)CC2)nnc1-c1ccncc1	98*	3	1	4	-10	-14	i	-7
COc1ccc(S(=O)(=O)NC(=O)C2(C)CCN2C(=O)C2CCCCC2)cc1OC (stereo not given)	2	-2	7	.	.	0	.	.
NCCn1c(-c2ccccc2)cc(C(=O)O)c1-c1ccccc1F	-27	3	-11	3	6	5	i	-11
O=C(NC12CC3CC(CC(C3)C1)C2)c1ccc(COc2ccc(Cl)cc2[N+](=O)[O-])o1	.	7	-12	2	2	-4	.	4
O=C(NCCCN1CCCC1=O)C1CCN(S(=O)(=O)c2ccc(F)cc2)CC1	-2	-3	-23	.	.	3	.	.
COc1ccc(CC(=O)Nc2cc(C)ccc2O)cc1OC	12	7	.	-2	10	-9	i	2
CC(Sc1nnnn1C)C(=O)NC1CCCc2ccccc21 (stereo not given)	2	-3	-2	3	-2	4	i	-10
O=C(COC(=O)c1ccc(Br)o1)Nc1cccc(S(=O)(=O)N2CCCCCC2)c1	.	-1	-3	-4	-7	-12	i	-7
Cc1ccc(C23CC4CC(CC(C(N)=O)(C4)C2)C3)cc1	2	2	3	1	-9	0	i	-39
Nc1ccc2c(c1)C(=NO)c1cc([N+](=O)[O-])ccc1-2	-120	-73	-7	.	.	-3	.	.
CCCCS(=O)(=O)Nc1ccc(N2CCOCC2)c(S(=O)(=O)N2CCOCC2)c1	4	-5	-10	12	4	-5	i	-27
COc1cccc(C(c2c(N)n(C)c(=O)n(C)c2=O)C(C)[N+](=O)[O-])c1 (stereo not given)	2	1	.	6	-5	4	i	6
OC(c1ccccc1)(c1ccccc1)C1CCN(C(=S)NC2CCCC2)CC1	-15	-4	.	-9	-3	0	i	-8
CC(=O)c1cccc(N(CC(=O)Nc2ccccc2C(=O)N2CCCC2)S(C)(=O)=O)c1	-225	-1	0	-10	-3	2	i	-3
COc1cc(C(=O)NC2CCN(C)CC2)ccc1Nc1ncc2c(n1)N(CCc1ccccc1)CCC(=O)N2C	24	20	-7	.	.	5	.	.
COc1ccccc1/C=N/NC(=O)CC(=O)NC1CCCCC1	-19	3	.	-5	-4	5	i	-10
CC(NC(=O)c1ccc(CS(C)(=O)=O)cc1)c1ccc(-n2ccnc2)cc1 (stereo not given)	17	-6	-19	5	-12	0	i	0
COc1ccc(-n2cc(-c3ccccc3)c3c(NN4CCOCC4)ncnc32)cc1	39	-3	-22	18	0	-6	i	54
O=C(CSc1nnnn1-c1ccccc1)Nc1nc(-c2ccccc2)ns1	.	4	.	20	10	6	i	15
Cc1cccc2c(=O)n3c(nc12)CCCCC3	-35	-2	-9	0	-5	0	i	-13
Cc1nc(CCNS(=O)(=O)c2cccs2)cs1	.	-5	-3	2	-4	-2	i	-22
CCc1ccc(-c2csc(NC(=O)c3cccnc3)n2)cc1	23	-8	.	-4	8	-29	i	9
CC1=C(C(=O)NCc2ccccc2)C(c2cccs2)n2ncnc2N1 (stereo not given)	.	-1	-2	-10	-2	-5	i	-2
CCOC(CNC(=O)Cc1c(C)nc2c(-c3ccccc3)c(C)nn2c1C)OCC	8	0	.	12	-4	-1	i	-7
Cc1nn(Cc2c(F)c(F)c(F)c(F)c2F)c(C)c1NC(=O)c1nn(C)c(C)c1Br	-4	0	7	3	-2	-3	i	-8
CCCCN1C(=O)C(=O)N(CC(=O)c2ccc[nH]2)C1=O	-1	-7	-12	.	.	2	i	-3
CCc1cccc(NC(=O)c2sc3nc4n(c(=O)c3c2C)CCC4)c1	-18	2	7	.	.	-1	i	9
Cc1ccc2[nH]c(=O)c(C(c3nnnn3CC3CCCO3)N3CCOCC3)cc2c1 (stereo not given)	3	-6	-4	9	0	1	i	-16
COC(=O)c1ccc(Oc2c(F)c(F)nc(N3CCOCC3)c2F)cc1	-4	0	-20	4	7	-6	i	.
O=C(COC(=O)c1cccc(-n2cnnn2)c1)c1ccc(F)cc1	.	-2	.	.	.	3	i	-16
COCCCNC(=O)C1CCN(C(=O)c2cc3sccc3n2Cc2ccc(F)cc2)CC1	-13	5	0	2	-7	-2	i	1
Cn1c(N=Nc2ccccc2)nc2ccccc21	-156	2	-40	6	?	12	i	-3
O=C(CCNC(=O)c1ccccc1Cl)NNC(=O)c1ccccc1O	-1	6	.	.	.	4	i	39
FC(F)(F)c1n[nH]c(=S)n1/N=C/c1ccco1	-9	4	-17	1	0	-1	i	-6
COC(=O)CN(c1cc(OC)ccc1OC)S(=O)(=O)c1ccc(OC)c(OC)c1	-12	-5	36	8	2	-1	i	-11
CSc1ccc(C2NN=C(c3ccccc3)S2)cc1 (stereo not given)	-39	6	-48	.	.	-2	i	3
CCc1ccc(-c2nc(CS(=O)CC(=O)NCc3cccnc3)c(C)o2)cc1 (stereo not given)	.	0	-23	19	1	-1	i	12
O=C1c2ccc(Br)cc2C(=O)N1c1ccc(Cc2ccncc2)cc1	5	-4	.	-5	-5	-19	i	.
CCOc1cc(C2c3c(n[nH]c3C)C(=O)N2c2ccc(C)cc2)ccc1O (stereo not given)	-35	-2	-21	5	-8	1	i	-15
O=C(Nc1ccc(S(=O)(=O)N2CCCCC2)cc1)C1CC(=O)N(Cc2ccccc2)C1 (stereo not given)	1	2	-14	.	.	-3	i	-3
CN1CCN(C(=O)CNc2ccc(C(F)(F)F)cc2[N+](=O)[O-])CC1	1	2	.	4	-1	1	i	-2
Cc1csc(=O)n1CC(=O)OCC(=O)Nc1cc(S(=O)(=O)N2CCOCC2)ccc1Cl	1	3	.	.	.	3	i	-4
Cn1c(=O)c2c(nc(SCC(=O)Nc3ccccc3)n2C)n(C)c1=O	9	0	-8	12	2	1	i	-2
CC1(C(=O)NCc2ccco2)Cc2c(-c3ccc4c(c3)OCO4)ccnc2O1 (stereo not given)	-86	4	0	.	.	-11	.	.
COc1ccc(CCN(Cc2cc3cc(C)c(C)cc3nc2Cl)C(=O)C2CC2)cc1	.	-2	.	-2	-8	-7	i	1
COC(=O)Nc1cc([N+](=O)[O-])ccc1OC	-8	-1	.	-6	1	1	i	.
CCOC(=O)NC(Nc1cc(C)on1)(C(F)(F)F)C(F)(F)F	.	13	-6	5	14	2	i	-7
CCc1ccc2c(COC(=O)C3CSC4(C)CCC(=O)N34)cc(=O)oc2c1 (stereo not given)	-2	0	-13	.	.	-3	.	.
O=C(NCCOc1ccc(F)cc1)C1CCC(=O)N(CCc2ccccn2)C1 (stereo not given)	-56	-8	-12	-3	-1	3	i	-18
O=C(CSc1ncn[nH]1)N/N=C/c1ccc(Br)cc1	-1	-1	-13	-8	-11	0	i	-7
CCn1c(C)c(C(C)=O)c(NCc2ccccc2)nc1=S	.	-9	9	10	-5	1	i	-5
O=C(NCc1n[nH]c(=S)n1-c1ccc(Br)cc1)c1ccc(S(=O)(=O)N2CCOCC2)cc1	2	4	.	39	-6	5	.	18
Cc1ccc(OCCCC(=O)NNC(=O)c2ccccn2)cc1	-5	1	.	.	.	-2	.	16
CCc1ccc(S(=O)(=O)c2nnn3c2nc(NCCNC(C)=O)c2ccccc23)cc1	3	3	.	4	-7	4	i	3
CC(C)N1CCN(S(=O)(=O)c2ccccc2)c2ccccc21	1	0	-13	.	.	2	.	.
Cc1cccc2c1NC(=O)C2=Nc1ccc(Cl)cc1	11	-3	-16	8	1	0	i	25
FC(F)(F)c1cc(-c2ccccc2)nc(N2CCOCC2)n1	.	-2	6	2	-6	-11	i	8
CCc1ccc(-c2cc(C(=O)NN3CCN(C)CC3)c3ccccc3n2)cc1	17	-6	-12	-8	-8	-3	i	14

# Following part:
SMILES	Env fusion inh	MT1-MMP act inh	UUG fidelity	PABP polyA inh	eIF4H FP inh	MT1-MMP act inh RFP	Rce1 inh	CSC inhib
O=C(O)CCC(=O)N1N=C(c2c(-c3ccccc3)c3cc(Cl)ccc3[nH]c2=O)CC1c1ccco1 (stereo not given)	-11	-1	.	0	-1	0	i	1
COC(=O)Cc1c(C)c2ccc(OCc3nn[nH]n3)c(C)c2oc1=O	-65	15	-15	25	-1	9	+	-17
COc1ccccc1/C=C/CN1CCC(Oc2cc(C(=O)NC3CC3)ccc2OC)CC1	-10	0	-1	-9	3	0	i	3
O=C(Nc1ncccn1)c1ccc([N+](=O)[O-])cc1	12	-3	.	-19	-8	-1	+	-5
O=C(NCCOc1ccccc1Cl)c1ncn[nH]1	-36	0	.	0	-1	4	i	.
CC(CNC(=O)CN(C)CC(=O)Nc1ccccc1Br)c1ccccc1 (stereo not given)	2	1	21	.	.	4	.	.
CCNC(=S)Nc1ccc(NC(=O)c2ccccc2O)cc1	-2	1	-25	5	0	-1	i	-3
COc1ccc(NC(=O)CCOc2ccccc2)c(OC)c1	-133	-8	-9	7	1	-6	i	-9
O=C(O)c1ccc(S(=O)(=O)NC2CCCc3ccccc32)cc1 (stereo not given)	.	0	-3	-17	-2	5	i	-2
N#Cc1ccc(N=c2ssnc2Cl)cc1	-51	-4&1	-20&-25	9	-6	3&1	i	22&50
Cc1ccc(C(=O)O)cc1NCc1ccncc1	15	-1	-2	-8	7	4	i	-19
COc1ccccc1CNC(=O)Cn1nnnc1CN(C)C(C)C	-15	0	-14	-1	0	0	i	-23
CC(C)NC(=O)c1ccc(COCC(F)(F)C(F)F)cc1	-80	1	2	11	-2	3	i	-10
CCN(CC)CCNC(=O)C1CCCCN1S(=O)(=O)c1cccc([N+](=O)[O-])c1 (stereo not given)	2	2	-2	6	2	3	i	-11
C/C(=N\NC(=O)c1ccc([N+](=O)[O-])c(C)c1)c1ccccc1Cl	-10	2	.	-8	6	-3	i	-3
CN(C)/C=N/S(=O)(=O)c1ccc(Cl)c(Cl)c1	-1	5	.	-9	1	6	i	-36
COC(=O)[C@@]1(C)[C@H]2C(=O)N(C)C(=O)[C@H]2[C@H]2CN=C(SC)N21	-16	2	-7	.	.	7	.	.
CCOc1ccc2oc(C(=O)N(C)CCc3ccc(OC)c(OC)c3)c(C)c2c1	-22	-1	-4	.	.	-3	.	.
Cc1c(C(=O)N2CCN(c3ccccn3)CC2)oc2c(F)cccc12	2	3	-8	5	-15	4	i	0
c1cnc(N2CC[N+]3(CCCC3)CC2)nc1	-44	-4	-14	-5	-6	-2	i	-2
COc1ccc(-c2nnc3ccc(SC(C(C)=O)C(C)=O)nn23)cc1OC	-8	7	11	0	10	2	i	-5
Cn1c(=O)c2sccc2n(Cc2cccc(Br)c2)c1=O	16	10	-3	3	3	-14	i	-6
CN(C)C(=O)CSc1nnc(Cc2ccccc2)n1Cc1ccco1	-2	4	.	-17	-6	3	i	2
COc1ccccc1C1CCN(C(=O)c2ccc(Cl)cc2)CC1	0	-4	-8	10	0	-5	i	-3
